ClpP mod: qHTS Assay for Activators of ClpP. purified B. subtilis ClpP, FRET peptide cleavage, 20 min. Potency, µM (titrated, usually from 57.5 µM), inactives show at the top dose activity change, negative = active. hit rate 1.9% among 340,000; active = well fitted falling curve with a large enough effect; inconclusive = small, poorly fitted or top-dose-only effect; inactive = no such curve, though single readings can be large or run the other way; also: potency is read from the fitted curve at half-maximal effect; the source files actives as falling curves though it sought activators and does not explain the sign; nearly all actives have a fitted effect of over 65% in size; many hits overshoot -100%
Target sequence (P80244 whole entry, looked up): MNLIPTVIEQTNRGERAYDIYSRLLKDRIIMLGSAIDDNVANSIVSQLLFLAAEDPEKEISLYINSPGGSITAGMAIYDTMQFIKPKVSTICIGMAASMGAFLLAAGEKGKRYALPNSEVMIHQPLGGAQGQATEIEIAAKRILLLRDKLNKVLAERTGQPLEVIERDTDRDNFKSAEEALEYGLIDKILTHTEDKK
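FRET quenching reversal measured ClpP activation: 10 microg/mL B. subtilis ClpP at pH 8 with the FRET-FV decapeptide, read at 430 nm after 320 nm excitation. The 20-min minus 0-min signal was scaled between DMSO/no-enzyme wells and ADEP (5.8 microM final).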
Menin-MLL FL inh: inhibitors of human menin-MLL interaction, wild-type MLL peptide. Fluorescence polarization, fluorescein-MLL peptide displacement from menin. FP activity change, % at 61.4 µM. 290,000 tested, under 10 active. AID 1766; inconclusive = falling polarisation curve, or a change in total fluorescence; inactive = total fluorescence flat and polarisation flat or rising; no compound was filed as active; the % refers to the polarisation; negative = inhibition;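 also: % of control where 0% means no effect; inhibitors lower the polarisation; unlabelled MLL peptide was the positive control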
TRPML1 blocker: blocks the human TRPML1 channel; TRPML1-inducible cells, Ca2+ dye fluorescence, FDSS; stronger effect = lower value; inhibition of EC80 agonist-evoked calcium signal; AID 624415; Q9GZU1; hit rate 0.02% among 390,000; activity change, negative = inhibition, % (concentration not given with the values); in the data active means activity change below about -50%; inconclusive means about -30% to -50%; inactive means above about -30%;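 also: stimulus is agonist 54-4 at its EC80 concentration; % is scaled to controls: 0 for no effect and ±100 for the full control effect; compound concentration not given in the record; the text of the record puts the active cut at -80%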
Target sequence (Q9GZU1 whole entry, looked up): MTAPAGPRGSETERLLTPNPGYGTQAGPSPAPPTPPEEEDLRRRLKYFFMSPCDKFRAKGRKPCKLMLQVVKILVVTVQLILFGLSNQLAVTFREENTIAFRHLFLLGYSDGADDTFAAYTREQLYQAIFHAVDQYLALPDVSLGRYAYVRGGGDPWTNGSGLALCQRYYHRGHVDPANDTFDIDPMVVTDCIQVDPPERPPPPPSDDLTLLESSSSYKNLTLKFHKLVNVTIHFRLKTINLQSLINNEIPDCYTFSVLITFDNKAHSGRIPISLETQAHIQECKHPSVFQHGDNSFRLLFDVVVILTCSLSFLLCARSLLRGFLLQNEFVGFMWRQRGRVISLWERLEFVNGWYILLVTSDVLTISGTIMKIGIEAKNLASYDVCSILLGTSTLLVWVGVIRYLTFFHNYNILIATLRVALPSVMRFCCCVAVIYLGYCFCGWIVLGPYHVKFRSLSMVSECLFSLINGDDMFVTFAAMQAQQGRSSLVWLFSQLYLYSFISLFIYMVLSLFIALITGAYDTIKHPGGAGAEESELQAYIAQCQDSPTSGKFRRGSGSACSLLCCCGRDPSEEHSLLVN
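Calcium fluorescence in TRPML1-DL cells induced overnight with Tet: a 110 s read after compound pin addition, then a 110 s antagonist read after challenge with 54-4 at 4 uM final (EC80).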
TRPML1 agonist: activates the human TRPML1 channel; activation, % (concentration not given with the values); Q9GZU1; TRPML1-expressing cells, Ca2+ dye fluorescence, FDSS; host cell line not named in the record; reference of the full effect not given here; hit rate 0.12% among 410,000; in the data active = activation above about 50%; inconclusive = about 30% to 50%; inactive = below about 30%; also: 0% is about no effect; the text of the record puts the active cut at 80%
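Tet-induced TRPML1-DL cells, 1,500 per well, cultured overnight, were loaded with a no-wash Ca2+ dye for 45–90 min. Calcium fluorescence was recorded on the FDSS for 110 s after compound addition, before the EC80 agonist (4 uM 54-4) was added.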
gsp antagonist: antagonists of gsp mutant (McCune-Albright syndrome); gsp-mutant cells, cAMP HTRF, 30 min; control for the full effect not named in the record; hit rate 0.4% among 340,000; Potency, µM (series often up to 76.9 µM), for the others: at the top dose activity change, negative = inhibition, usual class: inhibitors; active = falling curve of any shape with a large fitted effect; inconclusive = falling curve, mostly with a smaller effect; inactive = flat or rising curve; cell line not stated here;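 also: intracellular cAMP measured with PDE inhibitor Ro 20-1724 present during compound exposure; potency is read from the fitted curve at half-maximal effect; % is scaled to controls: 0 for no effect and ±100 for the full control effect; nearly all actives have a fitted effect of over 65% in size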
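Cells, 2000/well, grown 16–24 h in DMEM 10% FBS with 0.5 mg/ml G418, then compounds plus […] (300 uM addition stock), 30 min at 37C. cAMP read by HTRF (cAMP-d2 and anti-cAMP antibody-K in lysis buffer) after 30 min RT.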
gsp agonist: activates gsp, the McCune-Albright syndrome mutation. hit rate 0.13% among 340,000. Potency, µM (doses to about 76.9 µM), inactives show at the highest dose activation (cAMP increase), most hits filed as activators. gsp mutant cells, cAMP HTRF, 30 min; control for the full effect not named in the record; active = well fitted activation curve with a large enough effect; inconclusive = small, poorly fitted or top-dose-only effect, or another doubt; inactive = no such curve, though single readings can be large or run the other way; cell line not stated here;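 also: phosphodiesterase inhibitor Ro 20-1724 added with compounds to block cAMP breakdown; potency is read from the fitted curve at half-maximal effect; nearly all actives have a fitted effect of over 60% in size; about a fifth of the inactives were tested at one dose only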
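Cells in DMEM/10% FBS with G418 were pretreated with compounds in DMSO plus […] (300 uM stock) for 30 min at 37C. cAMP was measured by HTRF (cAMP-d2 plus anti-cAMP antibody-K) after 30 min at room temperature.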
Numbers without * were called inactive; [ ] = dose if it differs, or a comment.

CCN(C(=O)CSc1nc(-c2ccccc2)c(-c2ccccc2)[nH]1)C1CCS(=O)(=O)C1 (configuration not stated) was read as ClpP mod 25µM*, Menin-MLL FL inh 2.8, TRPML1 blocker 37, TRPML1 agonist -0.4, gsp antagonist -7% and gsp agonist inconclusive.
For Cc1cccc(-c2nnc(SCC(=O)NC3CCCCC3)o2)c1 the results were ClpP mod -2.3%, TRPML1 blocker -9 and TRPML1 agonist 1.1.
`Cc1cc(C)c(S(=O)(=O)/N=C2/C=C(SCC(=O)O)C(=O)c3ccccc32)cc1C` gave Menin-MLL FL inh 14, TRPML1 blocker 18, TRPML1 agonist -0.4, gsp antagonist -3% and gsp agonist -4%.
For CCc1nc2c(sc3nc4c(cc32)COC(C)(C)C4)c(=O)n1Cc1ccccc1 the results were ClpP mod -8.7%, Menin-MLL FL inh -1.6, TRPML1 blocker 4, TRPML1 agonist 0.4, gsp antagonist 12% and gsp agonist 12%.
For CC(=O)Nc1c(O)nc(SCC(=O)Nc2cccc(C)c2)[nH]c1=O the results were ClpP mod -1.4%, Menin-MLL FL inh -3.1, TRPML1 blocker -8, TRPML1 agonist -0.3, gsp antagonist 1% and gsp agonist 11%.
`CCN(CC(=O)Nc1ccccc1C(F)(F)F)C(=O)C1CCN(C(=O)Nc2ccccc2)CC1` gave ClpP mod -0.1%, TRPML1 blocker 23, TRPML1 agonist -0.6, gsp antagonist 0% and gsp agonist -9%.
Screening CCOC(=O)NC(=O)CSc1nnnn1-c1ccccc1 returned ClpP mod 1.7%, Menin-MLL FL inh -2.3, TRPML1 blocker 5, TRPML1 agonist -0.5, gsp antagonist 3% and gsp agonist -19%.
CC(OC(=O)c1ccc(NS(=O)(=O)c2ccc3[nH]c(=O)[nH]c3c2)cc1)C(=O)Nc1cccc(Cl)c1Cl (configuration not stated) was read as Menin-MLL FL inh 0.3, TRPML1 blocker -11, TRPML1 agonist 0.7, gsp antagonist -1% and gsp agonist -7%[15.4 µM].
`COC(=O)CNC(c1ccccc1)c1cc(Br)ccc1NC(=O)CNC(=O)OCc1ccccc1` (configuration not stated) gave ClpP mod -6.6%, Menin-MLL FL inh 0.2, TRPML1 blocker 18, TRPML1 agonist 1.7, gsp antagonist 5% and gsp agonist -22%.
`O=C(OCc1nc2ccccc2s1)C1CCN(C2=NS(=O)(=O)c3ccccc32)CC1` gave ClpP mod -4.0%, Menin-MLL FL inh 1.1, TRPML1 blocker 1, TRPML1 agonist -0.2, gsp antagonist inconclusive and gsp agonist -13%.
For O=C(COC(=O)c1cc(S(=O)(=O)N2CCOCC2)ccc1Cl)NCc1ccc2c(c1)OCO2 the results were ClpP mod 0.5%, TRPML1 blocker 23, TRPML1 agonist -0.5, gsp antagonist -7% and gsp agonist 20%.
For COc1ccc(-n2nc(C(C)=O)c(=O)[nH]c2=O)cc1 the results were Menin-MLL FL inh 6.1, TRPML1 blocker 24, TRPML1 agonist 0.3, gsp antagonist -4% and gsp agonist inconclusive.
`CC(=O)c1cc(C#N)c(Oc2ccccc2)nc1C` gave ClpP mod 2.4%, TRPML1 blocker -4, TRPML1 agonist 0.0, gsp antagonist 1% and gsp agonist -3%.
Cc1cc2cc3c(=O)[nH]c(=O)nc-3n(CC(O)C(O)C(O)CO)c2cc1C (configuration not stated) was read as ClpP mod 35µM*, TRPML1 blocker 15, TRPML1 agonist 0.7, gsp antagonist 10% and gsp agonist -3%.
`Cc1ccc(NC2CCCN(C(=O)c3snnc3C)C2)cc1C` (configuration not stated) gave ClpP mod -1.2%, TRPML1 blocker 4, TRPML1 agonist -0.7, gsp antagonist 0% and gsp agonist 14%.
For CCOC(=O)N1CCN(CC(=O)N2c3ccccc3CC2C)CC1 (configuration not stated) the results were ClpP mod 1.2%, Menin-MLL FL inh 3.8, TRPML1 blocker 9, TRPML1 agonist 1.2, gsp antagonist 9% and gsp agonist 14%.
`Cn1c(=O)oc2cc(S(=O)(=O)NC(Cc3ccccc3)C(=O)N3CCCCC3)ccc21` (configuration not stated) gave ClpP mod -0.2%, Menin-MLL FL inh 0.3, TRPML1 blocker -4, TRPML1 agonist -0.5, gsp antagonist -5% and gsp agonist 2%.
For COc1ccc(CNC(=O)C2CCCN(S(=O)(=O)c3c(C)noc3/C=C/N(C)C)C2)cc1 (configuration not stated) the results were ClpP mod -2.0%, TRPML1 blocker -6, TRPML1 agonist 0.6, gsp antagonist -16% and gsp agonist inconclusive.
For CCCCCCCc1c(O)nc(SCCN(C)C)[nH]c1=O the results were Menin-MLL FL inh 5.2, TRPML1 blocker 47, TRPML1 agonist -0.1, gsp antagonist 7% and gsp agonist -10%[15.4 µM].
For CC(C)c1ccc(CNc2nc(-c3ccco3)nn2S(=O)(=O)c2ccc(F)cc2)cc1 the results were ClpP mod 0.9%, TRPML1 blocker -1 and TRPML1 agonist 1.5.

Reprinted from the part before: two compounds, then new ones.
For CCCCCCCc1c(O)nc(SCCN(C)C)[nH]c1=O the results were Menin-MLL FL inh 5.2, TRPML1 blocker 47, TRPML1 agonist -0.1, gsp antagonist 7% and gsp agonist -10%[15.4 µM].
For CC(C)c1ccc(CNc2nc(-c3ccco3)nn2S(=O)(=O)c2ccc(F)cc2)cc1 the results were ClpP mod 0.9%, TRPML1 blocker -1 and TRPML1 agonist 1.5.
`CC(C)(C)n1nnnc1C(c1cccs1)N1CCN(C(=O)c2ccco2)CC1` (configuration not stated) gave ClpP mod 0.6%, Menin-MLL FL inh -0.2, TRPML1 blocker 19, TRPML1 agonist -0.4, gsp antagonist 2% and gsp agonist 1%.
For O=C(Nc1ccc2c(c1)OCCO2)c1cccc(C(=O)Nc2ccc3c(c2)OCCO3)c1 the results were ClpP mod -13%, Menin-MLL FL inh 4.4, TRPML1 blocker 24, TRPML1 agonist 0.0, gsp antagonist -4% and gsp agonist 0%[15.4 µM].
Screening CCC(Oc1ccccc1C)C(=O)N1CCCN(C)CC1 (configuration not stated) returned ClpP mod -0.3%, Menin-MLL FL inh -6.7, TRPML1 blocker -20, TRPML1 agonist -0.6, gsp antagonist 12% and gsp agonist -24%.
C=CCN=C1NN=C(c2cc(C)n(CC=C)c2C)CS1 was read as Menin-MLL FL inh 14, TRPML1 blocker -5, TRPML1 agonist 0.7, gsp antagonist -2% and gsp agonist -8%[15.4 µM].
CC(NC(=O)CN(C)Cc1cccs1)c1ccccc1 (configuration not stated) was read as Menin-MLL FL inh -0.3, TRPML1 blocker -9, TRPML1 agonist 0.0, gsp antagonist 4% and gsp agonist 2%.
For CCc1nnc(N/N=C/c2c(Cl)cccc2Cl)n1N the results were ClpP mod -1.1%, Menin-MLL FL inh 1.5, TRPML1 blocker -1, TRPML1 agonist -0.5, gsp antagonist 7% and gsp agonist 7%.
C=CCOc1ccc(/C(O)=C2/C(=O)C(=O)N(CCCN3CCOCC3)C2c2ccc(OC)cc2)cc1 (configuration not stated) was read as ClpP mod -0.9%, Menin-MLL FL inh 3.2, TRPML1 blocker 0, TRPML1 agonist -0.6, gsp antagonist 4% and gsp agonist inconclusive.
Screening O=C(CSc1nc(-c2ccc(F)cc2)cs1)NCC1CCCO1 (configuration not stated) returned TRPML1 blocker -1, TRPML1 agonist 2.7, gsp antagonist -10% and gsp agonist 6%.
`Cc1cc(=O)n2ccsc2n1` gave ClpP mod -28%, Menin-MLL FL inh 2.0, TRPML1 blocker 2, TRPML1 agonist 0.2, gsp antagonist 12% and gsp agonist 1%[15.4 µM].
Screening O=C(NCCCc1ccccc1)C1CCC(=O)N(CCc2ccc(Cl)cc2)C1 (configuration not stated) returned ClpP mod -3.5%, TRPML1 blocker 10, TRPML1 agonist -0.3, gsp antagonist -2% and gsp agonist inconclusive.
`Cc1cccc(OCC(=O)Nc2nc3c(s2)CC(C(C)(C)C)CC3)c1C` (configuration not stated) gave ClpP mod 0.4%, TRPML1 blocker -5 and TRPML1 agonist 0.0.
O=[N+]([O-])/C(C=Nc1ccccc1O)=C\Nc1ccccc1O was read as ClpP mod -1.0%, Menin-MLL FL inh -0.4, TRPML1 blocker 32, TRPML1 agonist -0.8, gsp antagonist -22% and gsp agonist 11%.
Screening COc1ccc(-c2c(-c3ccc4c(c3)OCO4)c3ccccc3n2C)cc1 returned ClpP mod 5.1%, TRPML1 blocker 0, TRPML1 agonist 0.1 and gsp antagonist -4%.
For Cc1ccc(C)c(N2CCN(C(=O)CCc3nc(-c4cccc(F)c4)no3)CC2)c1 the results were ClpP mod -0.3%, TRPML1 blocker -15, TRPML1 agonist -0.7 and gsp antagonist -7%.
Screening CCCCSc1nnc2[nH]c(=O)cc(N)n12 returned ClpP mod -2.8%, Menin-MLL FL inh 0.6, TRPML1 blocker -1, TRPML1 agonist 0.6, gsp antagonist 9% and gsp agonist inconclusive.
Screening CSc1ncccc1C(=O)OCC(=O)NC1CCCCC1 returned ClpP mod -1.4%, TRPML1 blocker -11, TRPML1 agonist -0.9, gsp antagonist 19% and gsp agonist 28%.
Screening CC(C)N(c1ccccc1)c1ccc(NC(=O)C2CCCO2)cc1 (configuration not stated) returned ClpP mod -2.2%, Menin-MLL FL inh 3.3, TRPML1 blocker 10, TRPML1 agonist 0.2, gsp antagonist -4% and gsp agonist -23%.
Screening COc1ccc(-c2nc(CS(=O)CC(=O)NC3CCCCC3C)c(C)o2)cc1OC (configuration not stated) returned ClpP mod 3.8%, TRPML1 blocker -15, TRPML1 agonist -0.3, gsp antagonist -26% and gsp agonist 0%.
For O=C(Nc1ccc(S(=O)(=O)N2CCOCC2)cc1)C1CCN(S(=O)(=O)c2ccccc2)CC1 the results were ClpP mod 1.3%, TRPML1 blocker -2, TRPML1 agonist 0.5, gsp antagonist -11% and gsp agonist inconclusive.
Screening Cc1cc(C)c2c(=O)[nH]n(C3CC(C)N(C)CC3C)c2n1 (configuration not stated) returned ClpP mod -0.1%, Menin-MLL FL inh 0.6, TRPML1 blocker 1, TRPML1 agonist -0.7, gsp antagonist 10% and gsp agonist -4%.
For CCOC(=O)c1c(C)[nH]c(C(=O)OCC(=O)N2CCN(S(=O)(=O)c3ccc(C)cc3C)CC2)c1C the results were ClpP mod 1.3%, TRPML1 blocker -20, TRPML1 agonist 4.0, gsp antagonist -21% and gsp agonist 0%.
Screening Cc1cc(C)c(C#N)c(SCc2ccccc2[N+](=O)[O-])n1 returned ClpP mod 1.5%, Menin-MLL FL inh 0.8, TRPML1 blocker -1, TRPML1 agonist 2.6, gsp antagonist -2% and gsp agonist -5%.
For CCOCCc1nnc(NC(=O)C(C)Oc2ccccc2)s1 (configuration not stated) the results were ClpP mod 1.3%, Menin-MLL FL inh -0.5, TRPML1 blocker -26, TRPML1 agonist 1.2, gsp antagonist -11% and gsp agonist 28%.
Cc1cc(C)c(S(=O)(=O)N2CCC(N3CCN(Cc4ccccc4)C(=O)C3=O)CC2)c(C)c1 was read as ClpP mod -1.0%, TRPML1 blocker 14 and TRPML1 agonist -1.2.
